NPYLR7 agonist – activates Aedes aegypti NPYLR7 receptor; HEK293T NPYLR7/Galpha15, GCaMP6s calcium fluorescence; activation, % at 10 µM; 0.15% of 270,000 active; AID 1259423; in the data active = activation above about 40%;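 note: 0% = vehicle and 100% = reference agonist at the receptor; some compounds past the cut are filed as inactive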
NPYLR7 agonist max-min – also measured in NPYLR7 agonist; calls as there; activation, %; measured here: Max-Min RFU normalised activation; some inactives read as strong as hits;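 span of the calcium signal over five minutes; 0% = vehicle and 100% = native peptide agonist; compound fluorescence can raise it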
An asterisk follows results filed as active; & = joins results of further samples.

SMILES	NPYLR7 agonist max-min	NPYLR7 agonist
CCOC(=O)CCC(=O)OCC(=O)NC(C)C1CC2CCC1C2 (centres undefined)	2	3
O=C(NCCc1c[nH]c2ccccc12)Nc1ccc(F)cc1F	0	7
Cc1[nH]n(-c2ccccc2)c(=O)c1N=Nc1ccccc1Cl	-2	-2
CCSc1ncc(-c2nccn2-c2cccc(OC)c2)cn1	0	3
CC1CC(C)CN(S(=O)(=O)c2ccc(C(=O)OC(c3nccn3C)C(F)(F)F)cc2)C1 (centres undefined)	3	2
CCOC(=O)c1c(NC(=O)CSc2nnc3ccccn23)sc2c1CCC(C)C2 (centres undefined)	-14	-8
COc1ccc(C(=O)N2CCC3(CC2)C(=O)N(CC(=O)NCc2cccc(C(F)(F)F)c2)CN3c2ccccc2)cc1	28	26
COc1cccc(-c2nnc(NC(=O)C3CCCN3C(=O)Nc3ccccc3Br)s2)c1 (centres undefined)	20	19
O=C(Nc1ccc(Oc2cccnc2)cc1)C1CCN(Cc2ccoc2)CC1	5	7
COc1ccc(Nc2nc(Cl)nc(NCc3ccco3)n2)cc1	-13	-5
COC(=O)c1ccccc1C=C1N=C(c2cccc(C)c2)OC1=O	0	5
COC(=O)c1ccccc1C(=O)N1CC[C@@H](c2ccc(F)cc2)[C@H](O)C1	-5	-4

Part of the list above in order of formula weight, lowest first.
SMILES	NPYLR7 agonist max-min	NPYLR7 agonist
CCSc1ncc(-c2nccn2-c2cccc(OC)c2)cn1	0	3
Cc1[nH]n(-c2ccccc2)c(=O)c1N=Nc1ccccc1Cl	-2	-2
CCOC(=O)CCC(=O)OCC(=O)NC(C)C1CC2CCC1C2 (centres undefined)	2	3
COC(=O)c1ccccc1C(=O)N1CC[C@@H](c2ccc(F)cc2)[C@H](O)C1	-5	-4
CCOC(=O)c1c(NC(=O)CSc2nnc3ccccn23)sc2c1CCC(C)C2 (centres undefined)	-14	-8
COc1ccc(C(=O)N2CCC3(CC2)C(=O)N(CC(=O)NCc2cccc(C(F)(F)F)c2)CN3c2ccccc2)cc1	28	26

The list continues:
SMILES	NPYLR7 agonist max-min	NPYLR7 agonist
COc1cc(-c2nc3ccc(Br)cc3c(=O)n2Cc2ccccc2)cc(OC)c1OC	-2	3
N#C/C(=C\c1ccc(Br)c([N+](=O)[O-])c1)c1nn(CCO)c(N)c1C#N	-5	-1
CCCc1nnc2c(C(=O)N(C)C(c3ccccc3)c3ccccc3)cccn12	-7	-3
Cc1ccc(-c2ccc3c(c2)N(CCN2CCOCC2)C(=O)COC3)cc1C	3	3
Cc1ccc(CCNC(=O)C2CCC(=O)N(CCc3ccccn3)C2)o1 (centres undefined)	-3	-2
CN(Cc1cscn1)C(=O)c1ccccc1N(C)c1ccccc1	3	7
Cc1cc(=S)[nH]c2cc(Br)ccc12	-2	-4
O=C(COc1coc(CN2CCc3ccccc3C2)cc1=O)NC1CCCC1	1	1
CN(c1cc(Cl)nc(SCc2ccc(C(=O)N3CCN(c4cccc(C(F)(F)F)c4)CC3)cc2)n1)C1CCCCC1	21	25
COc1cc(NC(=O)N2CC(=O)N3CCc4ccccc4C3C2)cc(OC)c1 (centres undefined)	15	22
CC(C)c1ccc(CC2(C)C(=O)Nc3ccc(OC(F)(F)F)cc32)cc1 (centres undefined)	0	-1
C=C(C)COc1ccc(C(=O)N(CC2CCC(=O)N2)C(C)C)cc1 (centres undefined)	2	3
CC(C)(C)C(=O)N1CCC2(CC1)SCCN2C(=O)c1ccccc1	13	16
CCOC(=O)N1CCN(CN2C(=O)c3cccc4cccc2c34)CC1	-4	-2
O=C(NCc1cc(-c2ccccc2)no1)c1ccccc1N1CCOCC1	4	6
Cc1[nH]c(=O)[nH]c(=O)c1Cl	-16	-9
CCn1ccc2cc(C(=O)NCC3CCN(C)C3)ccc21 (centres undefined)	-1	5
COc1ccc(-c2ccc(C)c(NS(=O)(=O)c3ccc(NC(=O)C(C)C)cc3)c2)nn1	7	0
Cc1cc(C)nc(NS(=O)(=O)c2ccc(NC(=O)c3ccccc3)cc2)n1	2	3
CCc1nc2c(OCc3c(C)noc3C)cccn2c1N(C)C(=O)c1ccccc1F	-6	-13
Oc1c(-c2ccccn2)sc2ccccc12	-2	0
COc1ccccc1NC(=O)c1ccc(CSc2nnc3ccccn23)cc1	-6	-2
Cc1cc2c(=O)n(Cc3ccco3)c(SCC(=O)Nc3cccc(F)c3)nc2s1	-2	2
Cc1ccsc1CN(C)Cc1cnc(S(C)(=O)=O)n1CC1CCCO1 (centres undefined)	-1	2
CC1CSC(N(C(=O)COc2ccccc2C#N)c2ccc(Cl)cc2)=N1 (centres undefined)	7	9
Cc1c([N+](=O)[O-])cc(C(=O)Nc2ccc(O)c(-c3nc4ccccc4o3)c2)cc1[N+](=O)[O-]	12	9
CCCCN=C1NN=C(C23CC4CC(CC(C4)C2)C3)C(C)S1 (centres undefined)	5	8
C=CCc1cccc(C=Nc2ccc(Br)cn2)c1O	-20	-16
CN(Cc1c(O)ccc2ccncc12)C1CCS(=O)(=O)C1 (centres undefined)	0	0
COc1cccc(C(=O)N(Cc2csc(COc3ccccc3OC)n2)C(C)C)c1	7	-5
COc1ccc(N/N=C(\C#N)c2nc(-c3ccc(F)cc3)cs2)cc1	-4	-2
COC(=O)C1=C(C)NC2=C(C(=O)CC(c3ccc(Cl)cc3)C2)C1c1ccccc1OCc1ccccc1 (centres undefined)	-5	-3
CCCCn1c(N)c(N(Cc2ccco2)C(=O)c2ccc(=O)[nH]c2)c(=O)[nH]c1=O	11	6
O=C(NC(c1ccc(F)cc1)c1cnccn1)C1CCN(Cc2ccncc2)CC1 (centres undefined)	-5	6
Brc1ccc2nc(N3CCCC3)nc(-c3ccccc3)c2c1	5	8
CN(c1ccccc1)N1C(=O)c2ccccc2NC12CCN(C(=O)C1=CC(=O)CC(C)(C)O1)CC2	-4	-1

Compound profiles, from the list above. Screens in order: NPYLR7 agonist max-min	NPYLR7 agonist
`C=CCc1cccc(C=Nc2ccc(Br)cn2)c1O` as listed: -20	-16
`CN(Cc1c(O)ccc2ccncc12)C1CCS(=O)(=O)C1` (centres undefined) as listed: 0	0
`COc1ccc(N/N=C(\C#N)c2nc(-c3ccc(F)cc3)cs2)cc1` as listed: -4	-2

(list continues)
SMILES	NPYLR7 agonist max-min	NPYLR7 agonist
CCOC(=O)c1c(NC(=O)c2cc(C)oc2C)sc2c1CCC(C#N)(c1ccccc1)C2 (centres undefined)	0	6
C=CCNc1nnc(SCC(=O)Nc2ccc(F)cc2)s1	10	-7
Cc1cccc(C)c1OCCCN(C)C(=O)C(=O)c1cccn1C	-8	-2
CSC(=NS(=O)(=O)c1ccc(N)cc1)NS(=O)(=O)c1cccs1	6	7
Cc1cc(S(=O)(=O)NC2CC(C)(C)NC(C)(C)C2)c(C)cc1Br	0	2
O=C(c1cccs1)N1CCCC(OCc2cc(F)ccc2F)C1 (centres undefined)	-3	-5
CCOC(=O)CN(C)C(=O)CN1CC(C)Oc2ccc(Cl)cc21 (centres undefined)	-18	0
O=C1CN(Cc2ccccc2)C2(CCN(C(=O)C3CC3)CC2)N1	-8	-5
CCOc1ccccc1NC(=O)CN1CCSc2ccccc21	8	13
COc1cccc(CNC(=O)N2CCn3nc(C(=O)NC4CC4)cc3C2)c1	5	10
Cc1nc(-c2ccccc2)sc1C(=O)N(CC(=O)N(C)C)CC(F)(F)F	0	0
O=C(CCc1ccccc1)N1CCCC(OCc2cccc([N+](=O)[O-])c2)C1 (centres undefined)	5	4
Cc1oc2cc(OCC(=O)c3ccc(F)cc3)ccc2c(=O)c1-c1ccccc1	-6	-1
COc1ccc(NC(=O)CC2C(=O)N(c3ccccc3)C(=S)N2NC(=O)c2ccccc2)cc1 (centres undefined)	6	1
COc1ccc(NC(=O)c2cc(-c3cccs3)nc3ccccc23)cc1	-7	-3
Cc1ccoc1C(=O)NC(Cn1ccnc1)c1ccccc1 (centres undefined)	-1	-1
Cc1ccc(Cn2c(=O)c3c(nc4n3CC(C)CN4c3ccc(C)c(C)c3)n(C)c2=O)cc1 (centres undefined)	3	1
COc1ccc(-c2cc(F)c(OC)c(F)c2)cn1	7	12
CC(NCCc1csc(-c2cccnc2)n1)C(=O)NC1CCCC1 (centres undefined)	6	14
O=C(Nc1ccc(Cl)cc1[N+](=O)[O-])C1=C(O)CCn2c1nc1ccccc12	8	8
C=CCNCC1CC(c2ccc(OC)c(OC)c2)=NO1 (centres undefined)	-5	0
Cc1ccc(OCC(=O)NC2CCS(=O)(=O)C2)cc1C (centres undefined)	8	18
CCOc1ccc(-n2nnc3c(N4CCN(C(=O)CCCl)CC4)ncnc32)cc1	-8	-1
Cc1cc(C)n(C)c(=O)c1C(=O)N(C)Cc1csc(C(C)C)n1	-1	0
CCN(CC)C(=O)Oc1ccc2c(ccn2Cc2cccc(Oc3ccccc3)c2)c1-c1cc(C)cc(C)c1	18	13
CCCn1cc(C(=O)NC(c2cc(C)ccn2)C2CC2)c(C)n1 (centres undefined)	-1	2
CCOC(=O)c1cc(Cc2ccccc2)sc1NC(=O)c1ccccc1C(F)(F)F	5	6
CCOC(=O)[C@H](CCc1ccccc1)N[C@H]1CCCN2CCC[C@@H](C(=O)O)N2C1=O	-8	-3
CCc1nc(-c2ccccc2)nc(N2CCN(S(C)(=O)=O)CC2)c1Cc1cccc(Cl)c1	6	2
Cc1nc(SCC(=O)c2ccc(F)cc2)c2c3c(sc2n1)CCCC3	-8	-3
O=C(O)c1cnc(/C=C/c2cnn(-c3ccc(Cl)cc3)c2)s1	4	6
O=C(CSc1cn(CC(=O)N2CCOCC2)c2ccccc12)NC1CCCCC1	-2	0
CCN(Cc1ccncc1)C(=O)C1CCCN(C(=O)COC)C1 (centres undefined)	-2	4
O=S(=O)(c1ccccc1)n1cccc1CN1CCCC1c1ccccn1 (centres undefined)	5	7
Cc1ccc(NC(=O)COc2cc(=O)n3ccccc3n2)cc1F	-4	-6
CSc1ccccc1NC(=O)c1nn2c(C(F)(F)F)cc(-c3ccccc3)nc2c1Cl	4	5
Cc1c(C)c(C=O)c(C)c(C)c1C=O	2	3
Cc1cc(C(F)(F)F)c(C#N)c(=O)[nH]1	6	-1
COc1cc(/C=C(/Cl)c2nc3cc(C(=O)O)ccc3c(=O)[nH]2)ccc1OCC#N	3	8
CC(=O)Cn1c(=O)c2c(nc3n(-c4ccc(C(F)(F)F)cc4)c(C)cn23)n(C)c1=O	7	2
Cc1c(C(=O)OC2CCCC2)[nH]c2c1C(=O)CCC2	6	10
Cc1ccc(C(=O)Nc2c(N)nc(SCC(=O)N3CCN(c4ccccc4)CC3)[nH]c2=O)cc1	-2	-1
CN(C)CC(O)Cn1cc(NC(=O)Nc2cccc(Cl)c2)cn1 (centres undefined)	1	1
O=C(NCCC1CCCCO1)c1cn(Cc2cccc(C(F)(F)F)c2)nn1 (centres undefined)	0	4
COc1ccccc1OCC1c2ccsc2CCN1C(=O)CN(C(=O)c1cccs1)C1CC1 (centres undefined)	3	-2
CN1CCN(C(=O)c2cc3nc(-c4ccc(Cl)c(Cl)c4)cc(C(F)(F)F)n3n2)CC1	-24	-18
Nc1ccc(-c2ccc(F)cc2Cl)cn1	-7	-7
Cc1nn(C)c(C)c1CN(C(=O)c1cc2ccccc2oc1=O)C1CC1	5	7
Cc1nc(CNC(=O)CCN(C)S(C)(=O)=O)cs1	-12	-10
Cn1ccc2ccc(NC(=O)c3cccc(N4CCCNC4=O)c3)cc21	44	1
COCCSc1c(C(C)C)cnc2c1c(=O)n(C)c(=O)n2C	10	1
Cc1nn(-c2ccc(F)cc2F)c(C)c1CCC(=O)N1CCc2ccccc2C1	10	10
Oc1c(Br)cc(Br)c2cccnc12	36&-1	42&6
Cc1nn(C)c(Cl)c1C(=O)OCC(=O)NC(C)C	4	6
CC(C)(C(=O)N1CCC(c2ccccc2C(=O)O)C1)c1ccccc1 (centres undefined)	-15	-13
Cc1nc(C)n(Cc2cc(CO)no2)n1	4	7
C[C@]12C=CC(=O)C=C1CCC1C2[C@@H](O)C[C@@]2(C)C1CC[C@]2(O)C(=O)CO (some centres undefined)	-12	-4
O=C1NNN(c2ccccc2)C1=CN1CCC(C(=O)N2CCCC2)CC1	-2	-2
CCOC(=O)C1CCCN(S(=O)(=O)NCc2ccccc2)C1 (centres undefined)	1	4
O=C(NCc1cccnc1)C1CCCN(C2CCN(C(=O)c3ccn[nH]3)CC2)C1 (centres undefined)	-9	-2

Remaining list, next part.
SMILES	NPYLR7 agonist max-min	NPYLR7 agonist
CC(=O)Nc1ccc(CN2CCCC(c3nc4ccccc4o3)C2)cc1 (centres undefined)	-5	-3
O=C(Nc1ccc(-c2nc3ccccc3o2)c(O)c1)c1ccc(Cl)c(Cl)c1	12	11
Cc1ccc(OCCSc2nc3ccccc3n2CC(O)CO)cc1 (centres undefined)	-25	-15
CCN(CC)C(=O)Oc1ccc2c(ccn2Cc2ccccc2Cl)c1NC(=O)C12CC[C@@](C)(C(=O)O1)C2(C)C	0	4
Cc1ccsc1CN1C[C@@H](C(=O)O)C[C@H](C(=O)NCc2cccnc2)C1	4	6
CNc1cccc(-c2ccc(OC)c(OC)c2)n1	-3	0
CC(=O)NCCc1nc(CCc2ccccc2)nn1-c1ccccn1	1	6
COc1cc(OC)nc(C(NC(=O)C2CCN(Cc3ccc(Cl)cc3)CC2)c2ccccc2C)n1 (centres undefined)	6	6
CCCC1CCc2ccccc2N1C(=O)CCCS(C)(=O)=O (centres undefined)	3	5
CCC(O)CNCc1cn(-c2ccc(F)cc2)nc1-c1ccccc1Cl (centres undefined)	-6	-1
O=C(/C=C\n1cnc(-c2cc(C(F)(F)F)cc(C(F)(F)F)c2)n1)N1CC(F)(F)C1	-2	0

Not all compounds are listed; count on the stated rates, not on these rows.
